# GLA inh pH 4.5: qHTS Assay for Inhibitors of Human alpha-Galactosidase at pH 4.5; Alpha-galactosidase A (Homo sapiens), P06280; purified enzyme, 4-MU-alpha-Gal fluorescence, pH 4.5; activity change, negative = inhibition, % at 105 µM; 230,000 tested, under 10 active; inconclusive = small, poorly fitted or top-dose-only inhibition, or a rising curve; inactive = flat fitted curve, though single readings scatter; no compound was filed as active;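 also: 0% = full activity with enzyme and -100% = basal without enzyme; dose as in the result columns while the protocol names 77 µM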
# miR-21 FLuc: qHTS Assay for Modulators of miRNAs and/orActivators of miR-21. 340,000 tested, under 10 active. Potency, µM (highest dose often 38.3 µM), for inactives: at the highest dose reporter change, positive = more light. AID 2288, 2010. HeLa miR-21 FLuc reporter, luciferase, 48 h; active = well fitted rising curve with a large enough effect; inconclusive = small, poorly fitted or top-dose-only effect; inactive = no such curve, though single readings can be large or run the other way;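 also: % of control where 0% means no effect; miR-21 action dims this reporter so a rising signal means less miR-21 action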
#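 HeLa cells stably expressing CMV-driven firefly luciferase with a downstream miR-21 binding sequence, endogenously expressing miR-21, were treated with titrations (up to about 40uM final) for 48 hours at 37 degree Celsius. Luciferase luminescence was read after lysis.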
# Rango dissoc inh: qHTS Assay for Inhibitors of RanGTP induced Rango (Ran-regulated importin-beta cargo) - Importin beta complex dissociation; 340,000 tested, 0.071% active; Biochemical FRET Rango-importin beta, RanGTP-induced dissociation; Snurportin-1 (Homo sapiens) + GTP-binding nuclear protein Ran (Homo sapiens) + Importin …; Potency, µM (doses to about 46.1 µM), for inactives: at the highest dose activity change, negative = inhibition; AID 540253, 2011; active means falling FRET ratio curve, often poorly fitted, with flat reads before Ran was added; inconclusive means other falling curves, or compound fluorescence or quenching; inactive means flat or rising ratio curve;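 also: potency is read from the fitted curve at half-maximal effect; % of control where 0% means no effect; nearly all actives have a fitted effect of over 45% in size; -100% = wells without RanGTP and RCC1; the record marks most hits as doubtful in a second field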
#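 Two FRET readings bracket the reaction: one 5 min after compound meets Rango–importin beta, another 45 min after RanGTP-RCC1 (0.6 uM Ran, 0.2 uM RCC1, 2 mM GTP) is added. Only the second defines inhibition.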
# Rango complex inh: qHTS Assay for Inhibitors of Rango (Ran-regulated importin-beta cargo) - Importin beta complex formation; Importin subunit beta-1 (Homo sapiens), Q14974; Rango CFP/YFP FRET sensor + importin beta, 45 min; 340,000 tested, 0.031% active; Potency, µM (titrated, usually from 92.2 µM), for the others: top-dose inhibition of complex formation; AID 540263, 2011; active = rising FRET ratio curve, often small or poorly fitted; inconclusive = mostly compound fluorescence or quenching in the first reads; inactive = flat curves in all reads;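 also: potency is read from the fitted curve at half-maximal effect; 0% = DMSO wells and 100% = buffer wells lacking importin beta; nearly all actives have a fitted effect of over 15% in size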
# Target sequence (Q14974 whole entry, looked up): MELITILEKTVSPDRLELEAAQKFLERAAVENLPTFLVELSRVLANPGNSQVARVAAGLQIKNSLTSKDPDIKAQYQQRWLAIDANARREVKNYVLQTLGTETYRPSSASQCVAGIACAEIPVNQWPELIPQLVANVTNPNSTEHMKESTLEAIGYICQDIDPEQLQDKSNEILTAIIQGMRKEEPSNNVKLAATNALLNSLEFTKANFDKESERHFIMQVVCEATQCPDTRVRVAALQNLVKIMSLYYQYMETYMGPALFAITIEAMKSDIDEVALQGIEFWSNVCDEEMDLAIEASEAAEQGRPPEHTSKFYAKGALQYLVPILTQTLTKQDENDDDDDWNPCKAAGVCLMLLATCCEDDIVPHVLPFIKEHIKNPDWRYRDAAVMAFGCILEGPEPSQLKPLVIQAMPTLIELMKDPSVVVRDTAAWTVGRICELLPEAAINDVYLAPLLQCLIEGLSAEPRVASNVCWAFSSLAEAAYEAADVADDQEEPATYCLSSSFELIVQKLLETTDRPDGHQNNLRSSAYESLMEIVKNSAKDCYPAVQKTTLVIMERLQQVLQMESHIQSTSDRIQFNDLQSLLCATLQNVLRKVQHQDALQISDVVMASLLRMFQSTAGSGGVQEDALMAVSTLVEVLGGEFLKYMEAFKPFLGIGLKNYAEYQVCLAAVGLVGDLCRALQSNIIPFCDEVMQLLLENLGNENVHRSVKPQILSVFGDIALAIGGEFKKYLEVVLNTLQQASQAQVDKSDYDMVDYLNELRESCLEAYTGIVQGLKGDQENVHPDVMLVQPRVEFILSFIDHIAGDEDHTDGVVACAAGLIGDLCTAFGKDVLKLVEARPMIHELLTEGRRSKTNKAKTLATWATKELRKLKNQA
#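 Inhibition scored from the CFP 486 nm/YFP 530 nm FRET ratio 45 min after adding 0.125 microM importin beta to 50 nM Rango biosensor preincubated 5 min with compound (room temperature, PBS with DTT, Tween-20, BSA). No-importin wells as positive control.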
# Starred values were filed as active, the others as inactive; ? = inconclusive; . = not tested or not shown. A portion of the library, so the mix of outcomes need not match the whole.
# Under each structure: GLA inh pH 4.5, Rango dissoc inh, miR-21 FLuc, Rango complex inh
C/C=C1\NC(=O)[C@H](C)NC(=O)[C@@H](NC(=O)[C@@H](Cc2ccc(O)cc2)NC(=O)[C@@H](NC(=O)/C(C)=C/C)C(C)C)[C@@H](C)OC(=O)[C@H](CCCCc2ccc(O)cc2)NC(=O)[C@@H](CCC(=O)O)NC1=O
  ., -11%, ., -1.3%
Cc1ccc(C(CC(=O)O)NC(=O)c2ccc(S(=O)(=O)N3CC(C)OC(C)C3)cc2)cc1 (stereo not given)
  ., -1%, ., -1.1%
CCOc1ccc(NC(=O)/C(=C\c2ccc(OC(C)=O)c(OC)c2)NC(C)=O)cc1
  3, -5%, -9%, -1.2%
NS(=O)(=O)c1ccc(CCNS(=O)(=O)c2cccc3cccnc23)cc1
  ., -11%, -7%, 5.1%
Nc1nc(NCC(=O)O)nc(NCc2ccccc2)c1[N+](=O)[O-]
  ., 8%, -3%, -2.5%
O=S(=O)(Nc1ccc(-c2ccc3nncn3n2)cc1)c1cccs1
  ., -25%, ., 1.6%
COCC1CCN(C(=O)c2cc(COc3cc(C)c(Cl)c(C)c3)on2)C1 (stereo not given)
  ., 12%, -63%, -14%
O=C(CCOc1ccccc1)Nc1ccc(S(=O)(=O)N2CCCC2)cc1
  -8, 8%, 4%, -3.3%
CC(=O)Oc1cccc(C(=O)Nc2ccc3c(c2)C(=O)N(CC2CCCO2)C3=O)c1 (stereo not given)
  ., 12%, 0%, 5.7%
Cc1cccc(N(C(=O)c2snc(C(N)=O)c2N)C(C(=O)NCC2CCCO2)c2ccc(N(C)C)cc2)c1C (stereo not given)
  ., -12%, -5%, -2.0%
O=C(CN1C(=O)/C(=C/c2ccccc2Cl)SC1=S)NC1CCS(=O)(=O)C1 (stereo not given)
  ., -3%, 0%, -0.6%
O=C(CSc1ccccn1)N1CCN(c2ncc(C(F)(F)F)cc2Cl)CC1
  -7, 11%, 12%, -2.1%
Cc1ccc(NC2CCCN(C(=O)C3CCCCC3)C2)cc1C (stereo not given)
  ., 2%, 6%, 0.9%
CC(C)OCCCn1c(=S)[nH]c2ccc(N3CCOCC3)cc2c1=O
  10, ?, 4%, ?
CCOC(=O)c1ccc(NC(=O)CN2C(=O)NC3(CCC(C)CC3)C2=O)cc1 (stereo not given)
  -7, 6%, 2%, 0.6%
CCOc1ccccc1NC(=O)C(OC(=O)c1cc(C)oc1C)c1ccccc1 (stereo not given)
  -18, 12%, -2%, 0.0%
Cc1ccc(CNC(=O)C2CCCN(S(C)(=O)=O)C2)cc1 (stereo not given)
  3, ?, -1%, -4.5%
COc1ccc(/C=C/c2ccc3c(Br)ccc(O)c3n2)cc1
  ., 12%, -21%, 3.2%
CC1(C(=O)NC2CCCCCCC2)CCC(=O)N1Cc1cccnc1 (stereo not given)
  -3, 13%, -3%, 3.0%
Cc1ccc(S(=O)(=O)NN=C2C(=O)C3CCC2C3Cl)cc1 (stereo not given)
  ., -4%, ., -0.4%
Cc1noc(C(=O)N2CCN(c3ccc(F)cc3)CC2)c1Cl
  -8, 2%, -8%, -0.7%
CC(C(=O)Nc1cccnc1)N1C(=O)C2C3C=CC(C3)C2C1=O (stereo not given)
  5, 4%, 0%, -3.3%
O=C(CCc1ccc(S(=O)(=O)N2CCOCC2)cc1)Nc1ccc2c(c1)OCCO2
  -3, -3%, 2%, -3.9%
CCOC(=O)C1CCN(C(=O)COC(=O)c2cccc(NS(=O)(=O)c3ccccc3)c2)CC1
  ., 4%, ., 1.4%
CC(C)(OC1OC(CO)C(O)C(O)C1O)[C@H]1Oc2ccc3ccc(=O)oc3c2[C@H]1O (stereo not given in full)
  -3, 1%, -5%, 1.4%
CCOC(=O)c1c(C)nc2c(c1-c1ccccc1)C(=O)c1ccccc1-2
  -10, -12%, -6%, -2.7%
O=C(NCC(c1ccco1)N1CCCC1)c1cc(S(=O)(=O)N2CCCCC2)ccc1Cl (stereo not given)
  ., 1%, ., 0.6%
CCOC(=O)C(C)Oc1ccc(NC(=O)C(Cl)(Cl)Cl)cc1 (stereo not given)
  -22, 3%, 1%, 7.0%
COc1ccc(CCNC(=O)C2CCN(S(=O)(=O)N3CCCCCC3)CC2)cc1OC
  0, 13%, -7%, -1.0%
CCn1cc(C(=O)NCc2ccc3c(c2)OCO3)c(=O)c2cc(S(=O)(=O)N(C)C)ccc21
  -16, -1%, -3%, 0.9%

# Under each structure: GLA inh pH 4.5, Rango dissoc inh, miR-21 FLuc, Rango complex inh
CC(C)c1ccc(C2C3=C(COC3=O)Nc3cc4c(cc32)OCO4)cc1 (stereo not given)
  6, 1%, 21%, 0.9%
COc1cc(C2C(C(=O)c3sc(C)nc3C)=C(O)C(=O)N2CCN(C)C)cc(OC)c1OC (stereo not given)
  -1, -19%, 0%, -7.7%
O=C(Cc1ccc(F)cc1)N1CCC(CC2CC(c3ccc(Cl)cc3)=NO2)(C(=O)NCC2CCCCC2)CC1 (stereo not given)
  ., 0%, 0%, 1.4%
O=C(CSc1nnc(-c2ccccc2)o1)Nc1ccccc1F
  2, 2%, ?, 3.8%
CCCCC[C@@H](/C=C/C1C(=O)C=C[C@H]1C/C=C\CCCC(=O)O)OC(C)=O (stereo not given in full)
  ., 5%, ., 2.3%
Cc1ccc2nc(C)c(C(=O)N/N=C/c3ccccc3[N+](=O)[O-])cc2c1
  -6, 1%, -6%, 2.1%
Cc1occc1-c1nnc(SCC(N)=O)n1Cc1ccccc1
  -7, -4%, -3%, -0.2%
CCCCCCNC(=O)CCc1nc2cccnc2n1Cc1ccc(OC)cc1
  ., -16%, -7%, 2.1%
COC(=O)c1cccc(NC(=S)N2CCCCC2)c1
  1, -12%, -18%, -1.3%
Cc1ccc(NC(=S)NCc2cccs2)cc1
  -6, 7%, -22%, 1.9%
CCN(CC)CCCN(C(=O)c1cccs1)c1nc(-c2ccc(OC)cc2)cs1
  -5, -3%, -15%, -5.8%
COc1ccc(NC(=O)CSCC(=O)N=c2sccn2C)cc1
  ., 22%, -12%, -0.1%
CCO[C@@H]1c2c(ccc3ccc(=O)oc23)OC(C)(C)[C@@H]1O
  ., 5%, ., 6.2%
CCN(CC)CCCNC(=O)c1cc(Sc2nnc(C)s2)nc2ccccc12
  4, 33%, 0%, 4.0%
C=CCCC(=O)N1C[C@H]2CON(C)[C@H]2C[C@H]1c1cccc(Br)c1
  ., 8%, ., -1.2%
CC(=O)OC1CC2(C)/C(=N\O)CCC2C2CCc3cc(O)ccc3C12 (stereo not given)
  ., 1%, 0%, -1.9%
O=C(/C=C/c1ccccc1Cl)NCCc1ccccc1
  -7, -7%, -54%, -1.0%
CCCC(=O)Nc1cc(=O)[nH]c2ncnn12
  9, 2%, -7%, -5.3%
CCOC(=O)C1CCN(C(=O)c2ccccc2NS(=O)(=O)c2ccc(F)c(F)c2)CC1
  3, -4%, -5%, 0.8%
CCCCN(C(=O)CSc1nnc(-c2ccccc2OC)n1C)c1c(N)n(Cc2ccccc2)c(=O)[nH]c1=O
  3, 14%, -5%, -0.2%
O=c1cc(-c2ccc(O)c(O)c2)oc2cc(O)c(C3OC(CO)C(O)C(O)C3O)c(O)c12 (stereo not given)
  -1, -10%, 1%, ?
Cc1ccccc1NC(=O)Cc1nnc(SCC(=O)N2CCOCC2)n1C
  ., ?, -1%, 0.1%
CC(C)(C)C(=O)Nc1scc(-c2ccc(-c3ccccc3)cc2)c1C(=O)O
  ., 3%, ?, 2.2%
CCOc1ccc(NC(=O)CN2CCN(CC(=O)c3ccc(OC)c(OC)c3)CC2)cc1
  -1, -5%, -6%, ?
Cc1ccccc1C(=O)N1CCC(C(=O)N(C)CCOc2ccccc2)CC1
  ., 0%, -6%, -0.3%
CCOc1ccc(C(CC(=O)O)NC(=O)COc2ccccc2)cc1OC (stereo not given)
  3, -7%, -5%, 4.1%
CN1C(=O)c2ccccc2NC(=O)[C@]12O[C@@H]2c1cccc(O)c1
  3, -6%, 0%, 1.8%
COc1ccc(-c2sc(NC(=O)c3ccc(C)cc3)nc2-c2ccc([N+](=O)[O-])cc2)cc1
  5, ?, -3%, 5.0%
COc1cc(/C=N/n2cnnc2)ccc1OCCSc1ccc(C)cc1
  2, 16%, -49%, 0.7%
CCN(C(=O)Cc1c(C(=O)O)n(CC)c2ccccc12)c1cccc(C(F)(F)F)c1
  ., -16%, 0%, 3.8%

# Under each structure: GLA inh pH 4.5, Rango dissoc inh, miR-21 FLuc, Rango complex inh
Cc1ccc(-n2nc3c(c2NC(=O)c2ccc(S(=O)(=O)N4CCOCC4)cc2)CSC3)c(C)c1
  -4, 1%, -3%, -3.4%
CC(C)Nc1nc(Oc2cccc(Cl)c2Cl)cc(C(F)(F)F)n1
  -2, 0%, -1%, -0.7%
CCN1C(=O)[C@H]2[C@@H](c3ccc(-c4ccc5c(c4)OCO5)cc3)N3CCC[C@@]3(C(=O)OC)[C@H]2C1=O
  ., -11%, ., -0.2%
Cc1ccc(OCC(=O)NCc2ccccc2)c([N+](=O)[O-])n1
  0, 1%, -22%, 0.2%
Nc1nc(SCC(=O)N2CCCC2)[nH]c(=O)c1-c1ccccc1
  -8, 10%, -9%, -0.8%
CCOC(=O)C(CCCCCCP(=O)(c1ccccc1)c1ccccc1)NC(C)=O (stereo not given)
  1, 2%, 3%, -1.4%
NC(=O)c1ccc(Br)c(S(=O)(=O)N2CCCCC2)c1
  -4, -4%, -9%, -0.8%
N#Cc1c(-c2ccccc2)cc(C2CC2)nc1N
  -3, -8%, -32%, 1.5%
Cc1ccc([N+](=O)[O-])cc1NC(=O)C[n+]1ccccc1
  8, 4%, 0%, 0.0%
COC(=O)c1ccc(OCCCCN2CC(C)OC(C)C2)cc1 (stereo not given)
  ., 7%, -5%, 0.4%
O=C(NCc1ccc2c(c1)OCO2)C1CCCN1S(=O)(=O)c1ccc(Cl)cc1 (stereo not given)
  ?, -3%, 0%, -3.9%
CC1CCN(C(=O)CN2C(=O)NC3(CCC(C)CC3)C2=O)CC1 (stereo not given)
  ., 1%, ., -2.4%
CCOC(=O)CNC(=O)CSc1nc2c(C)cccc2cc1CC
  7, 10%, 0%, 1.4%
COc1ccc(-c2ccnc3nc(/N=C/N(C)C)nn23)cc1
  12, 12%, -2%, 1.0%
COc1ccccc1NC(=O)/C=C/c1ccc2c(c1)OCO2
  -17, 9%, -21%, ?
Cc1cc(NC(=O)C(C)SCC(=O)Nc2nc3c(F)cc(F)cc3s2)no1 (stereo not given)
  ., -15%, ., ?
CCOC(=O)N1CCN(c2c(N3CCc4ccccc4C3)c(=O)c2=O)CC1
  -4, 10%, -9%, -0.6%
O=C(Cn1nc(C(=O)O)c2ccccc2c1=O)Nc1ccc(F)cc1F
  ., 9%, 0%, -1.5%
Cc1cc(C(F)(F)F)n2nc(-c3cnn(C)c3C(F)(F)F)cc2n1
  ?, 11%, -2%, -2.1%
COc1cccc(-n2nnc3c(=O)n(Cc4ccc(Cl)cc4)cnc32)c1
  1, 6%, -4%, 2.1%
CCc1cccc(C)c1NC(=O)CN1C(=O)NC(CCc2ccccc2)C1=O (stereo not given)
  ., 6%, ., -1.8%
CC(NC(=O)CN1C(=O)COc2ccccc21)c1ccccc1 (stereo not given)
  -7, 20%, -1%, -4.0%

# 4 entries drawn at random from those above, as already listed:
# Under each structure: GLA inh pH 4.5, Rango dissoc inh, miR-21 FLuc, Rango complex inh
Cc1cc(NC(=O)C(C)SCC(=O)Nc2nc3c(F)cc(F)cc3s2)no1 (stereo not given)
  ., -15%, ., ?
COc1ccc(-c2ccnc3nc(/N=C/N(C)C)nn23)cc1
  12, 12%, -2%, 1.0%
Cc1ccc(OCC(=O)NCc2ccccc2)c([N+](=O)[O-])n1
  0, 1%, -22%, 0.2%
O=C(Cn1nc(C(=O)O)c2ccccc2c1=O)Nc1ccc(F)cc1F
  ., 9%, 0%, -1.5%

# High-throughput results: PubChem BioAssay, National Center for Advancing Translational Sciences (NCATS)
